Screening results deposited in PubChem BioAssay by The Scripps Research Institute Molecular Screening Center.
CHRM5 PAM = human M5 muscarinic receptor positive allosteric modulators, primary screen, CHO-K1 cells, Fluo-8 calcium fluorescence | Muscarinic acetylcholine receptor M5 (Homo sapiens), P08912 | CHO-K1 hM5, ACh EC20 PAM; 0% = ACh EC20, 100% = ACh EC100 | activation, % at 3 µM | 360,000 tested, 0.3% active | AID 624038, 2012;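 active = activation above the run cutoff, the mean activation of all test compounds plus 3 SD, cut at about 18% in these data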
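System – CHO-K1 hM5 cells · Compound – 3 µM, single dose · Incubation – compound preincubation 140 s before EC20 acetylcholine addition · Technique – Fluo-8 calcium fluorescence · Measure – Max/basal fluorescence ratio as % of EC20–EC100 ACh window · Benchmarks – low control EC20 acetylcholine (0%), high control EC100 acetylcholine (100%) · Replication – singlicate, one well per test compound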
M5 ag = human M5 muscarinic receptor agonists, primary screen, CHO-K1 cells, Fluo-8 calcium fluorescence; Muscarinic acetylcholine receptor M5 (Homo sapiens), P08912; AID 624037, 2012; 360,000 tested, 0.19% active; CHO-K1 hM5 cells; 0% DMSO wells, 100% maximal acetylcholine response; activation, % at 3 µM;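 active = activation above the run's mean over test compounds plus 3 SD, cut at about 23% in these data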;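 also: signal is peak over basal fluorescence ratio across the kinetic read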
M5 antag = human M5 muscarinic receptor antagonists, primary screen, CHO cells, Fluo-8 calcium fluorescence; AID 624040, 2012; inhibition, % at 3 µM; CHO-hM5 cells, ACh EC80; 360,000 tested, 0.59% active;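 active = inhibition above a per-plate cutoff, the mean of that plate's test compounds plus 3 SD, cut at about 27% in these data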;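 also: 0% = acetylcholine EC80 with DMSO and 100% = DMSO without agonist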
CHRM4 antagonist = human M4 muscarinic receptor antagonists, primary screen, CHO cells, Fluo-8 calcium fluorescence. Muscarinic acetylcholine receptor M4 (Homo sapiens), P08173. inhibition, % at 3 µM. AID 624125, 2012. 360,000 tested, 0.73% active. CHO-hM4 cells, ACh EC80;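 active = inhibition above its plate's cutoff, the mean inhibition of sample wells plus 3 SD, cut at about 27% in these data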;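 also: 0% = acetylcholine EC80 with DMSO and 100% = DMSO without agonist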
Target sequence (P08173 whole entry, looked up): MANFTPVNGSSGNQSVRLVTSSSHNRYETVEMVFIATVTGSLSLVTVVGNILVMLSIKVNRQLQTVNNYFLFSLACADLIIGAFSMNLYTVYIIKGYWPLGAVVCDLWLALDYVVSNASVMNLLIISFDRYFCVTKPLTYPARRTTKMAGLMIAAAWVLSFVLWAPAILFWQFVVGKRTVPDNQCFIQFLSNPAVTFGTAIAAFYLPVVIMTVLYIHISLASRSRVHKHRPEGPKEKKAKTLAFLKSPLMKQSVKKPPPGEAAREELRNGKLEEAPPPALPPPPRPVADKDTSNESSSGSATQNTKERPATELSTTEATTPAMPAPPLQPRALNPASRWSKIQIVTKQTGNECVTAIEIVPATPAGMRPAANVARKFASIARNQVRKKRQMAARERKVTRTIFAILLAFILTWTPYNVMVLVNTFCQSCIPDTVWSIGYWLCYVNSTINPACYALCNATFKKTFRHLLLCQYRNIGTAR
M4 ag = human M4 muscarinic receptor agonists, primary screen, CHO-K1 cells, Fluo-8 calcium fluorescence | 360,000 tested, 0.14% active | AID 624127, 2012 | CHO-K1 hM4/Gqi5; vehicle 0%, full acetylcholine response 100% | activation, % at 3 µM | Muscarinic acetylcholine receptor M4 (Homo sapiens), P08173;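 active = activation above the run mean over all test wells plus 3 SD, cut at about 32% in these data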;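 also: peak over basal fluorescence ratio per well then scaled between controls; 0% = DMSO wells and 100% = acetylcholine at EC100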
An asterisk follows results filed as active; & = joins results of further samples. This is a subset; count on the stated rates, not on these rows.

Keys – A = CHRM5 PAM; B = M5 ag; C = M5 antag; D = CHRM4 antagonist; E = M4 ag
structure: O=C(O)C1CC=CCC1C(=O)NCCc1ccccc1 (configuration not stated)
  A: 6.8	B: -0.5	C: -3.9	D: -9.2	E: 0.6
structure: O=C(COc1ccc(F)cc1)NNC(=O)c1cc2ccccc2oc1=O
  A: 0.5	B: 0.2	C: -0.5	D: 5.8	E: 1.9
structure: CCc1cc(C(N)=S)ccn1
  A: 1.1&-1.2	B: 0.4&-0.1	C: -1.2&0.0	D: -11.5&4.2	E: 0.9&0.0
structure: Cc1ccc(-n2nc3c(=O)n(CC(=O)NCCc4ccccc4C)nc(C)c3c2C)cc1
  A: -2.4	B: -5.5	C: -8.1	D: -9.2	E: -0.5
structure: Nc1ncnc2c1ncn2C1O[C@H](CO)[C@@H](O)[C@@H]1O (some centres not stated)
  A: -0.6	B: 0.0	C: -0.1	D: 10.5	E: 0.8
structure: COc1cc(C=NCC2OCCc3ccccc32)cc(OC)c1 (configuration not stated)
  A: 0.7	B: -1.0	C: -1.2	D: 8.1	E: 0.3
structure: CC(=O)c1cccc(OCC(O)CNCCc2ccc(Cl)cc2)c1 (configuration not stated)
  A: 1.4	B: -4.5	C: 0.3	D: 0.6	E: 2.4
structure: Cn1c(NCCN(CCO)CCCc2ccc([N+](=O)[O-])cc2)cc(=O)n(C)c1=O
  A: 2.6	B: 0.1	C: -4.9	D: -3.0	E: 0.9
structure: CC(=O)c1ccc(NC(=O)c2ccc(COc3ccccc3[N+](=O)[O-])o2)cc1
  A: -12.9	B: 0.8	C: 4.7	D: 14.4	E: 8.6
structure: CCOC(=O)C(NCCc1ccccc1F)(NC(=O)CC)C(F)(F)F (configuration not stated)
  A: -3.2	B: 1.4	C: 4.2	D: 3.0	E: 0.3
structure: CCN1CN(CCc2ccccc2)CNC1=S
  A: -8.3	B: -1.1	C: 15.4	D: 5.7	E: 0.9
structure: NCC(O)c1ccc(O)c(O)c1 (configuration not stated)
  A: 0.1	B: 0.6	C: -4.6	D: 7.1	E: 1.6
structure: Cc1cccc(C)c1OCC(C)N (configuration not stated)
  A: -9.9	B: -0.1	C: 6.5	D: -21.4	E: 1.2
structure: CC(=C1C(=O)c2ccccc2C1=O)N1CCc2ccccc2C1
  A: 1.7	B: -1.4	C: -11.6	D: -2.1	E: -0.9
structure: OC[C@@H](O)[C@@H](O[C@H]1O[C@H](CO)[C@@H](O)[C@H](O)[C@H]1O)[C@H](O)[C@@H](O)CO
  A: -6.7	B: 0.7	C: 0.6	D: -0.3	E: 0.6
structure: CC(=O)c1ccc2c3c(cccc13)C(=O)N(CCc1ccccc1)C2=O
  A: 4.3	B: 0.8	C: 0.2	D: -6.0	E: 2.7
structure: CCCOC(=O)c1c(-c2ccc(OC)cc2)oc2ccc(-c3ccc(OC)nc3)cc12
  A: 9.3	B: 2.2	C: -0.7	D: -7.9	E: 1.8
structure: CNCC(O)c1ccc(O)c(O)c1 (configuration not stated)
  A: 0.2	B: 0.9	C: -2.9	D: -13.1	E: 1.3
structure: O=C(O)/C=C/C(=O)O
  A: -0.1	B: 1.4	C: 4.6	D: 4.0	E: 0.3
structure: CC1CCCN(c2c([N+](=O)[O-])c(=O)oc3ccccc23)C1 (configuration not stated)
  A: -1.1	B: 1.8	C: 1.0	D: 0.0	E: 1.7
structure: Oc1ccc(C=NCC2COc3ccccc3O2)cc1 (configuration not stated)
  A: 0.5	B: 1.9	C: -3.4	D: 1.3	E: 1.1
structure: Nc1nc2ncc(CNc3ccc(C(=O)N[C@@H](CCC(=O)O)C(=O)O)cc3)nc2c(=O)[nH]1
  A: 0.1	B: 0.2	C: -1.7	D: -20.1	E: 0.7
structure: CSc1ccc(C(=O)c2[nH]c(=O)[nH]c2C)cc1
  A: -1.0	B: -0.4	C: -3.5	D: -15.3	E: -0.1
structure: NS(=O)(=O)c1cc2c(cc1Cl)NC=NS2(=O)=O
  A: -1.1	B: 0.9	C: -2.1	D: -10.2	E: 2.0
structure: Cc1cc(=O)[nH]c(SCC(=O)NCCc2ccccc2)n1
  A: 0.2	B: 2.5	C: -4.9	D: 4.2	E: -0.2

Record cards, as listed above. Values in the order: CHRM5 PAM | M5 ag | M5 antag | CHRM4 antagonist | M4 ag
Record of CC(=O)c1ccc(NC(=O)c2ccc(COc3ccccc3[N+](=O)[O-])o2)cc1 → -12.9 | 0.8 | 4.7 | 14.4 | 8.6
Record of Cc1cc(=O)[nH]c(SCC(=O)NCCc2ccccc2)n1 → 0.2 | 2.5 | -4.9 | 4.2 | -0.2

Later entries
Keys – A = CHRM5 PAM; B = M5 ag; C = M5 antag; D = CHRM4 antagonist; E = M4 ag
structure: Clc1ccc(C(Cn2ccnc2)OCc2c(Cl)cccc2Cl)c(Cl)c1 (configuration not stated)
  A: -9.5	B: -1.1	C: 7.4	D: 5.0	E: -0.6
structure: O=c1ccnc(NCCc2ccccc2)[nH]1
  A: 1.8	B: -0.1	C: 17.2	D: 3.0	E: 1.0
structure: CCC(c1nnnn1Cc1ccco1)N(CCc1ccccc1)Cc1cc2cc(C)ccc2[nH]c1=O (configuration not stated)
  A: 0.0	B: -1.9	C: -5.4	D: -2.1	E: 0.1
structure: COc1ccc(C=NCC2OCCc3ccccc32)cc1OC (configuration not stated)
  A: -3.6	B: -2.9	C: 4.0	D: -1.4	E: 1.0
structure: O=C(NCCc1ccccc1)C1CCN(C(=O)c2ccc([N+](=O)[O-])cc2)CC1
  A: 2.2	B: 3.3	C: -0.4	D: 6.6	E: 14.3

Among those listed so far, these have a carbonyl joined to an NH by a bond outside any ring:
Keys – A = CHRM5 PAM; B = M5 ag; C = M5 antag; D = CHRM4 antagonist; E = M4 ag
structure: O=C(O)C1CC=CCC1C(=O)NCCc1ccccc1 (configuration not stated)
  A: 6.8	B: -0.5	C: -3.9	D: -9.2	E: 0.6
structure: O=C(COc1ccc(F)cc1)NNC(=O)c1cc2ccccc2oc1=O
  A: 0.5	B: 0.2	C: -0.5	D: 5.8	E: 1.9
structure: Cc1ccc(-n2nc3c(=O)n(CC(=O)NCCc4ccccc4C)nc(C)c3c2C)cc1
  A: -2.4	B: -5.5	C: -8.1	D: -9.2	E: -0.5
structure: CC(=O)c1ccc(NC(=O)c2ccc(COc3ccccc3[N+](=O)[O-])o2)cc1
  A: -12.9	B: 0.8	C: 4.7	D: 14.4	E: 8.6
structure: CCOC(=O)C(NCCc1ccccc1F)(NC(=O)CC)C(F)(F)F (configuration not stated)
  A: -3.2	B: 1.4	C: 4.2	D: 3.0	E: 0.3
structure: Nc1nc2ncc(CNc3ccc(C(=O)N[C@@H](CCC(=O)O)C(=O)O)cc3)nc2c(=O)[nH]1
  A: 0.1	B: 0.2	C: -1.7	D: -20.1	E: 0.7
structure: Cc1cc(=O)[nH]c(SCC(=O)NCCc2ccccc2)n1
  A: 0.2	B: 2.5	C: -4.9	D: 4.2	E: -0.2
structure: O=C(NCCc1ccccc1)C1CCN(C(=O)c2ccc([N+](=O)[O-])cc2)CC1
  A: 2.2	B: 3.3	C: -0.4	D: 6.6	E: 14.3
